Screens: PubChem BioAssay, Broad Institute
DUX4 txn inh – DUX4-mediated transcription inhibition; 293T-iDUX4 ZSCAN4-Gaussia luciferase reporter, 24 h; stronger effect = lower value; activity change, negative = inhibition, % (test concentration not listed); actives 0.8% (n = 37,000);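 active = -10% or lower and over 25 points stronger than a control reporter; inconclusive = -10% or lower with a smaller gap; inactive = above -10%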;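 also: 0% = median of neutral control wells and -100% = median of positive control wells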
DUX4 txn inh difference – recorded beside DUX4 txn inh, whose call it bears; Gaussia minus Italica difference, %; measured here: selective DUX4 reporter inhibition;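 worked out from the two reporters; negative = selective loss of the DUX4 reporter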
DUX4 txn inh control – second read-out of DUX4 txn inh, no call of its own (marks repeat the call); activity change, negative = inhibition, %; measured here: Italica tet-on control reporter;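 0 = neutral control and -100 = positive control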
* = called active by the depositor; ? = inconclusive; / = no result given.

DUX4 txn inh	DUX4 txn inh difference	structure	DUX4 txn inh control
12	-8	COCC(=O)N1[C@@H](C#N)[C@H](c2ccccc2-c2ccccc2)[C@@H]1CO	20
-3	3	N#C[C@@H]1[C@@H](c2ccccc2C2=CCCCC2)[C@@H](CO)N1C(=O)c1ccccn1	-6.2
10	8	O=C(c1ccccc1)N1CC(=O)N2[C@H](CO)[C@@H](c3ccc(-c4ccccc4)cc3)[C@H]2C1	1.6
1	1	CCN(C[C@H]1[C@H](c2ccccc2)[C@@H](CO)N1C(C)=O)C(=O)c1cccc(F)c1	0.9
?	/	COc1ccc2c3c(n(C)c2c1)[C@H](CO)N(C)CC31CCN(C(=O)c2ccccc2F)CC1	/
-3	-4	C[C@@H]1CN([C@H](C)CO)S(=O)(=O)c2ccc(C3=CCCC3)cc2O[C@@H]1CN(C)C(=O)c1ccccn1	1.9
-45*	-27*	C[C@H]1CN([C@@H](C)CO)C(=O)c2c(c3ccccc3n2C)-c2ccccc2CO[C@@H]1CN(C)Cc1cccc(O)c1	-17*
7	1	Cc1ccc(-c2ccc([C@H]3[C@@H](CO)N4CCCCN(C)C[C@H]34)cc2)cc1	6.2
2	12	COc1ccc(CNC(=O)C[C@@H]2CC[C@H]3[C@@H](COc4ccc(NC(=O)C5CC5)cc4C(=O)N3C)O2)cc1	-11
-1	2	C[C@@H]1CN([C@@H](C)CO)C(=O)Cc2cc(NC(=O)NC3CCCCC3)ccc2O[C@@H]1CN(C)C(=O)Nc1ccc(C(F)(F)F)cc1	-3.1
-1	0	Cc1noc(C)c1S(=O)(=O)N(C)C[C@@H]1Oc2c(cccc2N(C)C)C(=O)N([C@@H](C)CO)C[C@H]1C	-0.8
2	-3	COCC(=O)N1[C@H](C#N)[C@@H](c2ccccc2)[C@H]1CO	5.9
12	1	COc1ccccc1-c1ccccc1[C@H]1[C@@H](C#N)N(C(=O)CN(C)C)[C@@H]1CO	11
1	1	COc1ccccc1-c1ccc([C@H]2[C@@H](CO)N[C@@H]2CNC(=O)C2CC2)cc1	-0.1
3	9	COc1ccccc1NC(=O)N1C[C@H]2[C@@H](c3ccccc31)[C@H](CO)N2CC1CCOCC1	-5.2
?	/	CN1c2ccc(-c3ccc(F)cc3)cc2[C@H]2[C@H](CCN2C(=O)c2ccncc2)[C@H]1CO	/
?	/	COc1ccc2c3c([nH]c2c1)[C@H](CO)N(Cc1ccccc1)CC31CCN(CC2CC2)CC1	/
-77*	-34*	COc1ccc2c3c([nH]c2c1)[C@@H](CO)N(Cc1cc(F)ccc1F)CC31CN(C(=O)C2CCC2)C1	-44*
-1	-4	CC(C)(O)C#Cc1cccc(-c2nc(C(=O)O)cc3c2[C@@H](CCO)N(S(=O)C(C)(C)C)C3)c1 (stereo partly drawn)	3.1
5	5	C[C@H]1CCCn2nncc2COCCNC1=O	0.0
-1	-5	CC(C)c1cn(CC[C@H]2CC[C@H](NS(=O)(=O)c3ccc(F)cc3)[C@@H](CO)O2)nn1	3.8
2	1	Cc1noc(C)c1S(=O)(=O)Nc1ccc2c(c1)C(=O)N([C@@H](C)CO)C[C@H](C)[C@@H](CN(C)Cc1ccc(C(=O)O)cc1)OCCCC[C@H](C)O2	0.3
1	-1	O=C(c1cnccn1)N1CC[C@@H]2[C@H](CO)Nc3ccc(-c4ccccc4F)cc3[C@@H]21	2.0
1	-2	COC(=O)C[C@H]1CC[C@H]2[C@@H](COC[C@H](O)CN2S(=O)(=O)c2ccc(F)cc2)O1	3.4
?	/	COc1ccccc1NC(=O)N1CCCCN2[C@H](CO)[C@@H](c3ccc(C#CC4CCCC4)cc3)[C@@H]2C1	/
-7	-9	CO[C@@H]1CN(C)C(=O)c2ccc(NC(=O)Nc3ccc4c(c3)OCO4)cc2OC[C@@H](C)N(C)C[C@H]1C	2.6
0	-4	CC(=O)N(C)C[C@@H]1[C@@H](c2ccc(-c3ccccc3F)cc2)[C@@H](CO)N1C(C)=O	3.5
-4	-3	CCc1cnc(N2[C@H](CO)[C@@H](c3ccc(-c4cccc(F)c4)cc3)[C@@H]2C#N)s1	-0.7
-1	-7	CCCC(=O)Nc1ccc2c(c1)C(=O)N(C)[C@@H]1CC[C@H](CC(=O)NCCN3CCCCC3)O[C@@H]1CO2	5.2
4	5	COc1ccc(CN(C)C[C@H]2OCCCC[C@@H](C)Oc3ccc(NS(C)(=O)=O)cc3C(=O)N([C@H](C)CO)C[C@H]2C)cc1	-0.6
10	4	CO[C@H]1CN(C)C(=O)c2cc(NS(=O)(=O)c3cn(C)cn3)ccc2OC[C@H](C)N(CC2CC2)C[C@H]1C	5.7
-1	1	CO[C@@H]1CC[C@@H]2CCOc3ccc(C#N)cc3C(=O)N(C)CCCC(=O)N(C)C[C@H]1O2	-1.7
?	-1	Cc1ccccc1-c1ccc(C2[C@@H]3CN(S(=O)(=O)c4cn(C)cn4)C[C@H]2N3)cc1 (stereo partly drawn)	-0.2
0	-3	COc1ccc(S(=O)(=O)N(C)C[C@@H]2Oc3ccc(NC(=O)Nc4ccc(C(F)(F)F)cc4)cc3C(=O)N([C@H](C)CO)C[C@@H]2C)cc1	3.4
-2	3	COc1ccccc1NC(=O)N[C@H]1CC[C@@H](CCNC(=O)c2ccc3c(c2)OCO3)O[C@@H]1CO	-5.5
4	5	C[C@@H](NC(=O)C[C@@H]1C[C@H]2c3cc(NC(=O)CN(C)C)ccc3O[C@H]2[C@H](CO)O1)c1ccccc1	-0.9
6	-2	CC=Cc1ccc2n(c1=O)C[C@H]1[C@H](CO)[C@@H](C(=O)NC3CCC3)N(S(C)(=O)=O)[C@@H]21 (mixture of isomers)	7.9
3	-1	C[C@H](CO)N1C[C@H](C)[C@@H](CN(C)CC2CC2)OCCCC[C@H](C)Oc2ccc(NC(=O)c3ccccc3)cc2C1=O	3.3
?	/	N#Cc1cccc(-c2ccc([C@H]3[C@@H](CO)N4CCCCN(Cc5ccccc5F)C[C@@H]34)cc2)c1	/
-1	-5	Cc1ccc(-c2cnc3c(c2)C(=O)N([C@@H](C)CO)C[C@H](C)[C@@H](CN(C)C(=O)Cc2ccccc2)O3)cc1	3.9
2	3	C[C@@H]1CN([C@@H](C)CO)C(=O)Cc2cc(NC(=O)Cn3cnnn3)ccc2O[C@H]1CN(C)S(=O)(=O)c1ccc(Cl)cc1	-1.0
?	-1	N#Cc1ccc(-c2ccc(C3[C@@H]4CN(C(=O)c5cccnc5)C[C@H]3N4)cc2)cc1 (stereo partly drawn)	15
16	-8	COc1ccc2c3c([nH]c2c1)[C@H](CO)N(C(=O)Cc1ccccn1)CC31CCN(Cc2ccccn2)CC1	24
0	-6	CCCNC(=O)Nc1ccc2c(c1)C(=O)N(C)C[C@@H](OC)[C@@H](C)CN(C(=O)C1CCCCC1)[C@H](C)CO2	5.4
13	4	CN1CCN(C(=O)C[C@H]2CC[C@@H]3[C@H](COC[C@@H](O)CN3CC3CCOCC3)O2)CC1	9.7
2	0	O=C(c1cccnc1)N1CC2(C1)[C@H](c1ccccc1)[C@H](CO)N2C(=O)c1cccnc1	2.5
5	4	CN(C)C(=O)c1ccc(-c2ccc(C3[C@H]4CNC[C@@H]3N4S(=O)(=O)c3ccc(Cl)cc3)cc2)cc1 (stereo partly drawn)	1.4
5	7	CCCNC(=O)Nc1ccc2c(c1)C(=O)N(C)[C@@H]1CC[C@@H](CC(=O)O)O[C@H]1CO2	-1.9
0	6	COc1ccc(C#Cc2ccc([C@@H]3[C@@H](CO)N4C(=O)CN(C(=O)NC(C)C)C[C@H]34)cc2)cc1	-5.9
8	6	O=C(NCCN1CCCCC1)[C@H]1[C@H](CO)[C@H]2Cn3c(cccc3=O)[C@@H]1N2C(=O)C1CC1	2.0

Continued:
DUX4 txn inh	DUX4 txn inh difference	structure	DUX4 txn inh control
9	4	O=C(C[C@H]1CC[C@@H]2[C@H](COC[C@H](O)CN2Cc2ccccc2)O1)NCCCN1CCOCC1	5.0
-6	-3	Cc1noc(C)c1NC(=O)Nc1ccc2c(c1)C(=O)N([C@H](C)CO)C[C@H](C)[C@H](CN(C)C(=O)NC1CCCCC1)OCCCC[C@H](C)O2	-2.3
2	-2	CC(=O)N1[C@@H](CO)[C@@H](c2ccccc2)C12CN(C(=O)Nc1ccccc1F)C2	4.9
-3	-1	CS(=O)(=O)N1[C@@H](C#N)[C@@H](c2ccc(-c3ccccc3F)cc2)[C@@H]1CO	-1.9
-2	2	CNC[C@H]1OCc2cn(nn2)CCCC(=O)N([C@H](C)CO)C[C@@H]1C	-4.6
3	-5	CC(C)C#Cc1ccc([C@H]2[C@H](CO)N3C(=O)CN(C(=O)Cc4ccccc4)C[C@@H]23)cc1	8.1
3	3	CCCNC(=O)N1C[C@@H](O)COC[C@H]2O[C@H](CC(=O)N3CCCCC3)CC[C@@H]21	-0.2
0	-3	O=C(Cc1cccnc1)N1[C@@H](CO)[C@@H]2c3ccccc3NC[C@@H]21	2.8
2	3	O=C(C[C@@H]1CC[C@H]2[C@@H](COC[C@@H](O)CN2Cc2cccc(-c3ccncc3)c2)O1)N1CCOCC1	-1.4
20	9	COc1ccc2c3c([nH]c2c1)[C@H](CO)N(C(=O)C1CCOCC1)CC31CCN(Cc2nccs2)CC1	10
3	4	CC(=O)N1C[C@@H]2[C@H](c3ccccc31)[C@@H](CO)N2S(=O)(=O)c1ccccc1	-1.3
7	-1	CCCNC(=O)Nc1ccc2c(c1)C(=O)N(C)C[C@@H](OC)[C@@H](C)CN(Cc1ccccn1)[C@H](C)CO2	7.7
0	2	Cc1noc(C)c1NC(=O)N(C)C[C@@H]1OCCCC[C@@H](C)Oc2ccc(NC(=O)CCCCCC(=O)Nc3ccccc3N)cc2C(=O)N([C@H](C)CO)C[C@@H]1C	-2.5
2	-4	CNC[C@H]1Oc2ccc(NS(=O)(=O)c3ccc(Cl)cc3)cc2CC(=O)N([C@@H](C)CO)C[C@H]1C	6.3
16	7	CN(C)C(=O)c1cccc(-c2ccc3c(c2)[C@@H]2[C@@H](CCN2C(=O)Cc2ccccn2)[C@H](CO)N3C)c1	9.0
11	5	COc1ccc2c3c([nH]c2c1)[C@H](CO)N(S(C)(=O)=O)CC31CCN(CC2CCOCC2)CC1	6.2
9	17	CC(C)(C)[S@@](=O)N1Cc2cc(C(=O)N3CCCCC3)nc(-c3cccc(Br)c3)c2[C@H]1CCO	-8.6
24	11	COCC(=O)N1CC[C@@H]2[C@@H](CO)Nc3ccc(-c4cccc(C#N)c4)cc3[C@@H]21	14
-3	-8	CCCNC(=O)N1[C@@H]2Cn3c(cccc3=O)[C@H]1[C@@H](C(=O)N1CCC(Cc3ccccc3)CC1)[C@@H]2CO	4.6
9	8	CN(C)CCCNC(=O)C[C@H]1CC[C@H]2[C@@H](COC[C@H](O)CN2C(=O)c2ccncc2)O1	0.5
-2	1	O=C(O)C[C@H]1C[C@H]2c3cc(NC(=O)Nc4ccccc4F)ccc3O[C@H]2[C@H](CO)O1	-2.6
4	1	CC(C)NC(=O)N1CC2(C1)[C@@H](c1ccccc1)[C@H](CO)N2C(=O)C1CC1	2.5
-2	-4	C[C@@H]1CN([C@H](C)CO)C(=O)c2cc(C3=CCCCC3)cnc2O[C@@H]1CN(C)S(=O)(=O)c1cn(C)cn1	2.0
8	9	C[C@H]1CN([C@@H](C)CO)C(=O)c2ccccc2-c2ccccc2CO[C@H]1CN(C)C(=O)Nc1ccccc1C(F)(F)F	-0.3
0	-11	CC(C)CC#Cc1ccc([C@H]2[C@H]3CN(C(=O)c4ccccn4)CC(=O)N3[C@H]2CO)cc1	12

In another format: 11 of the compounds above
DUX4 txn inh	DUX4 txn inh difference	DUX4 txn inh control	SMILES
7	-1	7.7	CCCNC(=O)Nc1ccc2c(c1)C(=O)N(C)C[C@@H](OC)[C@@H](C)CN(Cc1ccccn1)[C@H](C)CO2
0	2	-2.5	Cc1noc(C)c1NC(=O)N(C)C[C@@H]1OCCCC[C@@H](C)Oc2ccc(NC(=O)CCCCCC(=O)Nc3ccccc3N)cc2C(=O)N([C@H](C)CO)C[C@@H]1C
2	-4	6.3	CNC[C@H]1Oc2ccc(NS(=O)(=O)c3ccc(Cl)cc3)cc2CC(=O)N([C@@H](C)CO)C[C@H]1C
16	7	9.0	CN(C)C(=O)c1cccc(-c2ccc3c(c2)[C@@H]2[C@@H](CCN2C(=O)Cc2ccccn2)[C@H](CO)N3C)c1
11	5	6.2	COc1ccc2c3c([nH]c2c1)[C@H](CO)N(S(C)(=O)=O)CC31CCN(CC2CCOCC2)CC1
9	17	-8.6	CC(C)(C)[S@@](=O)N1Cc2cc(C(=O)N3CCCCC3)nc(-c3cccc(Br)c3)c2[C@H]1CCO
24	11	14	COCC(=O)N1CC[C@@H]2[C@@H](CO)Nc3ccc(-c4cccc(C#N)c4)cc3[C@@H]21
-3	-8	4.6	CCCNC(=O)N1[C@@H]2Cn3c(cccc3=O)[C@H]1[C@@H](C(=O)N1CCC(Cc3ccccc3)CC1)[C@@H]2CO
9	8	0.5	CN(C)CCCNC(=O)C[C@H]1CC[C@H]2[C@@H](COC[C@H](O)CN2C(=O)c2ccncc2)O1
-2	1	-2.6	O=C(O)C[C@H]1C[C@H]2c3cc(NC(=O)Nc4ccccc4F)ccc3O[C@H]2[C@H](CO)O1
4	1	2.5	CC(C)NC(=O)N1CC2(C1)[C@@H](c1ccccc1)[C@H](CO)N2C(=O)C1CC1

Next structures.
DUX4 txn inh	DUX4 txn inh difference	structure	DUX4 txn inh control
0	1	C[C@@H]1CN([C@@H](C)CO)C(=O)c2cc(NC(=O)CCC(F)(F)F)ccc2O[C@@H](C)CCCCO[C@H]1CN(C)CC1CCCCC1	-0.2
0	0	Cc1noc(C)c1NC(=O)N(C)C[C@H]1Oc2c(cccc2N(C)C)C(=O)N([C@@H](C)CO)C[C@H]1C	-0.1
-1	1	C[C@@H]1CN([C@@H](C)CO)C(=O)c2cc(NC(=O)C3CCCCC3)ccc2O[C@@H](C)CCCCO[C@@H]1CN(C)C(=O)CCC(F)(F)F	-2.5
?	/	COc1ccc2c3c(n(C)c2c1)[C@H](CO)N(C(=O)c1ccc(F)cc1)CC31CCN(C(=O)Nc2ccc(F)cc2)CC1	/

The list is partial, so the mix of outcomes need not match the whole.
